Assay outcomes: PubChem BioAssay, several laboratories
HSV replic up: enhancers of HSV replication in host cells, fold increase, host cell viability; maximum fold increase; 0.005% of 220,000 active; HSV replication augmentation in cells;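 active = peak rise of 1.5-fold or more in the series; inconclusive = self-fluorescent or not available for retest; tested in PC3 cells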;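 note: first round at 10 µM; read as green reporter fluorescence; hits show the peak of a series up to 25 µM; 1 = signal of infected wells without compound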
GALR2 ag: GALR2 receptor agonists, primary screen, cell-based; activation, %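 (tested at 5 µM)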; 0.48% of 140,000 active; AID 803, 2007; GALR2-expressing cells, agonist activation read-out; Galanin receptor type 2 (Homo sapiens), O43603;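 active = above mean plus 3 SD of all compounds, about 5% in these data, not always enough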;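 note: 0% = vehicle buffer wells and 100% = reference agonist at full effect; tested in CHO reporter cells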
Target sequence (O43603 whole entry, looked up): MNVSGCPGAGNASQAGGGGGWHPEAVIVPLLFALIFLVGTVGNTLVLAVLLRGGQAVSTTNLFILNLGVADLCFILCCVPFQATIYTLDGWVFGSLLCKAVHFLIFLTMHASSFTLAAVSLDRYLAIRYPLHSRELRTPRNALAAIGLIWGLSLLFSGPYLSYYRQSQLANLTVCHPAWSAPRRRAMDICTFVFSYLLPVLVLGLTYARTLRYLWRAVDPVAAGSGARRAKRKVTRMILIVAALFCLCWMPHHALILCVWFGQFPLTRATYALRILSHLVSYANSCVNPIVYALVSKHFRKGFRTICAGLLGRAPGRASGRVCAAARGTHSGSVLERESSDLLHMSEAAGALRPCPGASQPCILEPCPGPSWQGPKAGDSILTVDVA
RGS16-Gao: modulators of RGS16 binding to Galphao, primary screen, biochemical, human proteins, multiplexed bead flow cytometry | bead-based flow cytometry RGS16-Galphao binding, fluorescence; actives lie on both sides | binding response (% of control), % at 10 µM | 0.38% of 220,000 active | AID 1441, 2008;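 active = below 25% or above 175%, edge rows of some plates excepted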;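 note: Galphao activated by GDP with aluminum fluoride before binding; 100% = wells without compound and 0% = beads without RGS; some results beyond the cut were filed as inactive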
Target sequence (O15492 whole entry, looked up): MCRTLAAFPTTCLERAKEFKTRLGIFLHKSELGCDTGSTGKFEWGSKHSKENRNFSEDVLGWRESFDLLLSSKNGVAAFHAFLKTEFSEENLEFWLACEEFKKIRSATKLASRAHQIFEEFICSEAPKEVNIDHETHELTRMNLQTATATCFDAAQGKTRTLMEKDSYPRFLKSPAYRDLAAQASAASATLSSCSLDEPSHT
Target sequence (P09471 whole entry, looked up): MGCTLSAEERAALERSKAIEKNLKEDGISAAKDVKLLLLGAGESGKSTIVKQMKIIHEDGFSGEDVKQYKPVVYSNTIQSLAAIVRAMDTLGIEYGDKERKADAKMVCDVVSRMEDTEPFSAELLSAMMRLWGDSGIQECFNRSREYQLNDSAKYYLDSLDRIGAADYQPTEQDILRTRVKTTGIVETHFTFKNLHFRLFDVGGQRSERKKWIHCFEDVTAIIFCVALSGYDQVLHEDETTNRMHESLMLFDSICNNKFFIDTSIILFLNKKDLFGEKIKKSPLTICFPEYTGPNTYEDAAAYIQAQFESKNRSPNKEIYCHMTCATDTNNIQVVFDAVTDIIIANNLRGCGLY
PKD1 inh: inhibitors of human PKD1 kinase, biochemical, fluorescence polarization; Serine/threonine-protein kinase D1 (Homo sapiens), Q15139; PKD1 kinase fluorescence polarization assay; inhibition, %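 (about 10 µM by stock and volumes)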; 0.056% of 200,000 active; AID 797, 2007;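 active = inhibition of 50% or more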;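 note: controls were vehicle for no effect and a reference inhibitor for full effect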
INS promoter inh: inhibitors of insulin promoter-driven GFP, primary screen, imaging, TRM-6 cells (human fetal islet line), eGFP reporter, cell count; reporter expression induced with tamoxifen; inhibition, % at 2 µM; 0.9% of 130,000 active;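 active = inhibition above the mean plus 3 SD, with well images judged a real hit on visual review, cut at about 60% in these data, passing the limit was not always enough; inconclusive = inhibition over the cutoff but images rejected on review; inactive = inhibition not above the cutoff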
INS promoter inh cell count: recorded beside INS promoter inh, whose call it bears; normalized cell count, %; measured here: cell count, toxicity; reference of the scale not given here;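 cells exposed to compound for 48 h; stained nuclei by imaging scaled within each plate; lower means fewer cells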
HSV replic up primary fold: second read-out of HSV replic up, no call of its own (marks repeat the call); fold increase; compound at 10 µM; measured here: primary screen fold increase 10 uM; tested in PC3 cells;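 GFP signal in the first replicate; 1 = infected wells without compound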
* hit, by the source's call; i = inactive; ? = inconclusive; nt = not tested or not shown.

cpd	molecule	HSV replic up	HSV replic up primary fold	GALR2 ag	RGS16-Gao	PKD1 inh	INS promoter inh	INS promoter inh cell count
1	Clc1ccccc1C1=Nn2c(nnc2-c2ccncc2)SC1	nt	nt	-1.4	98	9	69	91
2	CCC(C)[C@H](NC(=O)OC(C)(C)C)C(=O)N/N=C/C1=Cc2ccccc2OC1 (some centres not stated)	i	0.76	-0.7	99	2	-53	79
3	CCO[C@H]1OC(C(=O)N2CCCCCCC2)=C[C@@H](c2coc3ccccc3c2=O)[C@@H]1CCCO	nt	nt	nt	101	-3	nt	nt
4	N/C(=N\OC(=O)Cc1ccccc1)c1ccc([N+](=O)[O-])cc1	nt	nt	0.1	114	-6	42	141
5	CCC(C(=O)OCC(=O)Nc1cc(C)ccc1OC)c1ccccc1 (configuration not stated)	i	0.98	nt	103	-3	nt	nt
6	Cc1cc(Cl)cc(Cl)c1OCCOCCN(C)C	i	0.91	-0.1	99	-7	-129	132
7	Nc1cc(N)nc(CS)n1	i	0.97	nt	100	nt	nt	nt
8	COc1ccc(NC(=O)NCc2ccncc2)c(OC)c1	i	0.84	-0.4	94	7	34	104
9	C/C(O)=C(\C#N)c1nnc2n1CCCCC2	i	0.9	-0.6	102	-7	-14	86
10	COCC(C)n1c(SCC(=O)N2CCCCC2)nc2ccccc2c1=O (configuration not stated)	nt	nt	-1.9	103	-6	nt	nt
11	O=C(O)Cc1ccc(C(=O)c2ccccc2)s1	i	0.75	-1.7	41	-1	14	75
12	Cc1c(C(N)=O)sc(N)c1C(=O)OC(C)C	i	0.93	-1.1	98	0	nt	nt
13	CCC(CO)Nc1nc(CN2CCCCC2)nc2scc(-c3ccccc3)c12 (configuration not stated)	i	1	0.8	99	-3	nt	nt
14	COCCn1c(=N)c(C(=O)NCc2ccco2)cc2c(=O)n3cc(C)ccc3nc21	i	0.87	nt	103	-2	-10	213
15	Cc1ccnc(NC(=O)CCC(=O)N(CC(=O)NC2CCCCC2)Cc2ccccc2)c1	i	0.8	nt	105	0	0	78
16	COc1ccccc1/C=C/C=N/NC(=O)CN1CCN(Cc2ccccc2)CC1	i	0.9	nt	102	nt	nt	nt
17	CCOC(=O)c1cccc(NC(=O)Cn2cc3c(n2)CCC(C)C3)c1 (configuration not stated)	i	0.74	-1.2	106	-6	20	62
18	Cc1ccc(C2=C(CC(=O)O)C(=O)CC2)cc1	i	0.97	-1.1	22*	-15	11	74
19	Cc1cccc2c(=O)cc(C)n(CC(=O)N3CCOCC3)c12	i	0.9	-1.8	101	-12	nt	nt
20	COc1ccc(NC(=O)Nc2ccc(C(C)C)cc2)cc1	i	0.88	nt	101	nt	nt	nt

Looked up above.
no. 4 – INS promoter inh = 42
no. 2 – PKD1 inh = 2
no. 19 – RGS16-Gao = 101
no. 18 – INS promoter inh cell count = 74

(listing goes on)
cpd	molecule	HSV replic up	HSV replic up primary fold	GALR2 ag	RGS16-Gao	PKD1 inh	INS promoter inh	INS promoter inh cell count
21	CCn1c(=O)n(CC)c2cc(S(=O)(=O)Nc3c(C)cccc3C)ccc21	i	0.93	-2.3	102	-7	nt	nt
22	CNC(=S)N/N=C/c1cccc(OCc2ccccc2F)c1	i	0.99	-1.2	107	-3	21	192
23	CCCn1c(SCC(=O)c2cc(OC)ccc2OC)nnc1C(C)C	i	1	-1.6	91	4	nt	nt
24	CN(C)S(=O)(=O)c1ccc(Cl)c(C(=O)NCc2ccco2)c1	i	0.97	-2.1	100	-5	-23	111
25	CCOc1ccc(-c2cc(C(=O)O)c3ccccc3n2)cc1	i	0.91	-2.7	101	-12	46	104
26	O=C(c1ccccc1F)N(Cc1ccc2c(c1)OCO2)Cc1cc2cc3c(cc2n2nnnc12)OCO3	i	0.9	-0.7	96	-2	-37	170
27	COc1c(/C=N/NC(N)=S)c(C)nn1-c1ccccc1	i	1.1	-1.6	94	-17	50	127
28	c1ccc(COc2ccccc2CNC23CC4CC(CC(C4)C2)C3)cc1	i	0.63	nt	102	-4	-59	87
29	COc1cccc(NC(=S)NN2CCN(C)CC2)c1	i	1	-2.5	107	11	10	78
30	CCc1c(O)nc(SCC(=O)N2CCOCC2)n(-c2ccccc2)c1=O	i	1.1	-2.2	172	2	10	109
31	CCN(CC)/C(=N/O)NC(=O)NS(=O)(=O)c1ccc(C)cc1	i	0.96	-1.1	102	5	-18	110
32	Cc1ccc(-c2nc(N/N=C/c3ccccc3[N+](=O)[O-])c3ccccc3n2)cc1	i	1	-1.6	94	1	30	130
33	CC(C(=O)Nc1ccc([N+](=O)[O-])cc1)N1CCN(C/C=C/c2ccccc2)CC1 (configuration not stated)	i	0.97	-1.4	98	-1	-91	135
34	O=C(O)CCCC(=O)Nc1ccc(Br)cc1C(=O)O	i	0.92	-1.1	100	-5	25	76
35	O=c1c(C=NCc2cccnc2)c(C(F)(F)F)[nH]n1-c1nc2ccccc2s1	i	0.89	nt	88	-6	nt	nt
36	Oc1cccc(CCC2CCCCN2Cc2cn[nH]c2-c2ccc3c(c2)OCO3)c1 (configuration not stated)	i	1	nt	98	2	nt	nt
37	O=S(=O)(NC1CCCCC1)c1ccc(F)c2ccccc12	i	1	0.2	100	-14	-50	137
38	Cc1cc2c3nonc3ccc2n1-c1ccccc1	i	0.91	0.8	95	11	nt	nt
39	Cc1ccc(-c2nc3ccc(NS(=O)(=O)c4ccccc4)cc3[nH]2)o1	i	0.97	0.3	98	-5	-31	64
40	CCOc1cc(/C=N/NC(=O)CSc2cccc3cccnc23)ccc1O	i	0.89	nt	104	5	nt	nt
41	COc1cccc(OC)c1C(=O)Nc1nc2ccc(S(C)(=O)=O)cc2s1	i	0.81	-3.0	99	-10	nt	nt
42	O=C1CSC(c2cccc(F)c2)N1c1ccccc1F (configuration not stated)	i	0.99	-1.1	110	0	43	50
43	Cn1cccc1C(=O)C(=O)Nc1ccccc1	i	0.91	-2.1	99	-4	14	134
44	COC(=O)c1[nH]c2cc(OC)ccc2c1N	i	0.93	-2.1	68	-1	55	134
45	CCOc1ccccc1NC(=O)CSc1nccn1-c1ccccc1	nt	nt	-1.2	241	-3	nt	nt
46	C[C@@H](C(=O)Nc1nc2ccccc2s1)N1C(=O)C2CC=CCC2C1=O (some centres not stated)	i	0.84	nt	146	0	-45	45
47	O=C(NCCc1ccc(F)cc1)c1cc(=O)c2ccccc2o1	i	0.91	nt	99	-3	nt	nt
48	COC(=O)c1sc(S(=O)(=O)N2CCC(C(=O)O)CC2)c(C(=O)OC)c1C	i	0.97	-1.0	101	0	-36	125
49	Nn1c(Cc2cccc3ccccc23)nnc1SC1CCOC1=O (configuration not stated)	i	0.9	-1.2	114	-11	nt	nt
50	COc1cc(C(F)(F)F)nc(-c2ccccn2)n1	i	0.92	nt	104	3	nt	nt
51	COc1ccc(CNC(=O)CN2C(=O)C(C)N(c3ccc(C)cc3)C2=O)cc1 (configuration not stated)	nt	nt	-1.0	103	-11	4	117
52	CNc1cnn(-c2ccc(C)cc2)c(=O)c1Sc1ccc(C)cc1	i	1.1	nt	91	-2	-16	100
53	CC1(C)CC(C(=O)NCCC(c2ccccc2)c2ccco2)CCO1 (configuration not stated)	i	1.3	0.4	99	6	nt	nt
54	COC(=O)c1[nH]c2ccc(C)cc2c1NC(=O)CN1CCN(C(=O)c2ccccc2)CC1	i	0.99	0.8	100	-5	14	90
55	COc1ccc(CCNC(=O)C2CC(=O)N(c3ccc(Br)cc3)C2)cc1OC (configuration not stated)	i	0.94	nt	99	-1	nt	nt
56	COc1ccc(OC)c(-c2c(=O)n(OCc3ccccc3Br)c3ccccc3[n+]2[O-])c1	i	0.78	-0.8	99	-4	-24	84
57	O=C1Cc2ccccc2Sc2ccccc21	i	1.2	-1.3	103	6	nt	nt
58	COc1nc(OC)nc(N2CCC(NC(=O)C(Cc3cccc(OC)c3OC)NC(C)=O)CC2)n1 (configuration not stated)	i	0.96	nt	101	nt	nt	nt
59	CCn1c(NC2CCCCC2)nc2ccccc21	i	1.1	-0.1	97	-15	47	142
60	c1ccc(-c2noc(-c3ccccc3-c3ccccc3)n2)cc1	i	0.98	-0.1	98	6	52	91

New compounds follow
no. | mol | HSV replic up | HSV replic up primary fold | GALR2 ag | RGS16-Gao | PKD1 inh | INS promoter inh | INS promoter inh cell count
61 | COc1cccc(-n2nnc3c(=O)n(Cc4cccc(F)c4)cnc32)c1 | i | 0.9 | -1.5 | 125 | 0 | -17 | 154
62 | CN(C)CC(=O)c1c(N)n(Cc2ccccc2)c(=O)n(C)c1=O | i | 1 | nt | 97 | 3 | nt | nt
63 | O=C(CSC1=NCCN1)C1COc2ccccc2O1 (configuration not stated) | i | 1 | -1.3 | 95 | -5 | -46 | 112
64 | O=C(CN1CCOCC1)Nc1cccc(Br)c1 | i | 0.95 | -0.3 | 108 | -4 | -369 | 72
65 | O=C(CCS(=O)(=O)c1ccccc1)Nc1ccccc1N1CCOCC1 | i | 0.95 | nt | 103 | -2 | -31 | 91
66 | O=c1c2[nH]c3cccc(Cl)c3c2ncn1CCN1CCCCC1 | i | 0.98 | -1.7 | 101 | -7 | nt | nt
67 | CCOc1ccc(C(=O)SC2=NCCS2)cc1 | i | 0.8 | -2.9 | 119 | 6 | nt | nt
68 | O=C(CCCn1c(=O)[nH]c2cc(Cl)ccc2c1=O)NCCC1=CCCCC1 | i | 0.96 | 0.7 | 127 | -1 | 11 | 99
69 | c1ccc(Cc2nnc3sc(C4COc5ccccc5O4)nn23)cc1 (configuration not stated) | i | 0.87 | 0.0 | 50 | -5 | 8 | 87
70 | O=C(Nc1ccc(C(=O)N2CCCC2)cc1)Nc1ccc(Cl)cc1Cl | i | 1 | -2.3 | 101 | 0 | nt | nt

Part of the list above, reformatted:
The line under a structure holds: HSV replic up	HSV replic up primary fold	GALR2 ag	RGS16-Gao	PKD1 inh	INS promoter inh	INS promoter inh cell count
64. O=C(CN1CCOCC1)Nc1cccc(Br)c1
 : i	0.95	-0.3	108	-4	-369	72
65. O=C(CCS(=O)(=O)c1ccccc1)Nc1ccccc1N1CCOCC1
 : i	0.95	nt	103	-2	-31	91
66. O=c1c2[nH]c3cccc(Cl)c3c2ncn1CCN1CCCCC1
 : i	0.98	-1.7	101	-7	nt	nt
67. CCOc1ccc(C(=O)SC2=NCCS2)cc1
 : i	0.8	-2.9	119	6	nt	nt

2 records picked at random from the list so far:
no. | mol | HSV replic up | HSV replic up primary fold | GALR2 ag | RGS16-Gao | PKD1 inh | INS promoter inh | INS promoter inh cell count
61 | COc1cccc(-n2nnc3c(=O)n(Cc4cccc(F)c4)cnc32)c1 | i | 0.9 | -1.5 | 125 | 0 | -17 | 154
65 | O=C(CCS(=O)(=O)c1ccccc1)Nc1ccccc1N1CCOCC1 | i | 0.95 | nt | 103 | -2 | -31 | 91

(more compounds)
no. | mol | HSV replic up | HSV replic up primary fold | GALR2 ag | RGS16-Gao | PKD1 inh | INS promoter inh | INS promoter inh cell count
71 | Cc1ccsc1/C=N/NC(=O)Nc1ccccc1 | i | 0.77 | nt | 109 | 6 | -50 | 127
72 | CCN(CC)CCOC(=O)c1ccccc1Br | i | 0.95 | nt | 96 | -2 | nt | nt
73 | COc1ccc(C(CC(=O)NCCCN2CCOCC2)NS(=O)(=O)c2ccc(C)cc2)cc1 (configuration not stated) | i | 0.89 | -0.2 | 131 | -11 | 25 | 107
74 | CCOC(=O)C1=NN(C(=O)c2ccccc2)C(O)(c2ccc(C)cc2)C1 (configuration not stated) | ? | nt | -1.8 | 97 | -2 | -31 | 97
75 | Cc1c(C(=O)Nc2ccccc2[N+](=O)[O-])csc1-c1ccccc1 | i | 0.94 | -0.1 | 101 | 1 | nt | nt
76 | Cc1cccc(OCCCC(=O)Nc2ccc(N(C)C)cc2)c1 | i | 1.1 | -1.9 | 114 | -2 | -13 | 48
77 | Cc1ccccc1N1CCN(S(=O)(=O)c2ccccc2)CC1 | i | 0.83 | -0.8 | 106 | -3 | -44 | 93
78 | COc1ccc(-n2c(SCC(=O)NCCCN3CCCC3=O)nnc2C(C)N2CCCCC2)cc1 (configuration not stated) | i | 1.2 | nt | 104 | 3 | -73 | 83
79 | CCn1nc(CC(=O)Nc2ccc(-n3cnnn3)c(OC)c2)c2ccccc2c1=O | i | 0.79 | 0.6 | 98 | -4 | -33 | 70
80 | Cc1cccc(CCNS(=O)(=O)c2ccc3c(c2)oc(=O)n3C)c1 | i | 0.96 | -2.3 | 109 | 4 | nt | nt
81 | Cc1cc2c(ccc3c2no[n+]3[O-])nn1 | i | 0.85 | -0.5 | 104 | -4 | nt | nt

Outcome played no part in choosing rows. About 1.3% of those tested had a hit in this group.
